Screening data deposited in PubChem BioAssay by National Center for Advancing Translational Sciences (NCATS).
Lassa entry inh: qHTS for Inhibitors of binding or entry into cells for Lassa Virus. AID 540256, 2011. Lassa virus pseudotype entry inhibition, cell reporter; control for the full effect not named in the record. actives 1.2% (n = 300,000). Potency, µM (titrated, usually from 37.9 µM), for inactives: at the top dose activity change, negative = inhibition, most hits filed as inhibitors; active means well fitted inhibition curve with a large enough effect; inconclusive means small, poorly fitted or top-dose-only effect, or effect the other way; inactive means flat fitted curve, though single readings scatter; tested in HEK293 cells; further: on the % scale 0 is the no-effect control and ±100 the full control effect; nearly all actives have a fitted effect of over 50% in size; luciferase read-out
SARS PLpro yeast: qHTS of Yeast-based Assay for SARS-CoV PLP; actives 0.19% (n = 330,000); AID 485353, 2010; S. cerevisiae expressing SARS-CoV PLpro, growth rescue; control for the full effect not named in the record; Potency, µM (doses to about 32.9 µM), without a hit: at the top dose activity, positive = growth rescue; active means well fitted rising curve with a large enough effect; inconclusive means small, poorly fitted or top-dose-only effect; inactive means no such curve, though single readings can be large or run the other way; further: 0% is about no effect; nearly all actives have a fitted effect of over 55% in size; growth read by luminescence after 48 h
Cruzain inh noDet: qHTS Assay for Promiscuous and Specific Inhibitors of Cruzain (without detergent); Cruzipain (Trypanosoma cruzi), P25779; purified cruzain, Z-FR-AMC fluorescence, no detergent; Potency, µM, inactives show max response, negative = inhibition, usual class: inhibitors; actives 2.3% (n = 200,000); AID 1476, 2009;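 further: plate controls were enzyme without inhibitor for no effect and buffer without enzyme for full effect; nearly all actives have a fitted effect of over 40% in size; top concentration of the series not given in the record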
Target sequence (P25779 123-467 limits assumed): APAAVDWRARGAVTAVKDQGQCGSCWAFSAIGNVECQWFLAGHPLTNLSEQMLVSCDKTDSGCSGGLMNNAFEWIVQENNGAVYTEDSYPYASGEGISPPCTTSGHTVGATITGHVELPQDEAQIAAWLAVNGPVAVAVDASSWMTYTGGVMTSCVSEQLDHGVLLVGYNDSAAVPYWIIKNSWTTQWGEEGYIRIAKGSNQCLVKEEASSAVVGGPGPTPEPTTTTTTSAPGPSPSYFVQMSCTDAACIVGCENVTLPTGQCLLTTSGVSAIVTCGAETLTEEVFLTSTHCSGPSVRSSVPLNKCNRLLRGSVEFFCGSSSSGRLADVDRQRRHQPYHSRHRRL
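Detergent-free condition (0.00005% Triton X-100) in acetate buffer pH 5.5 with DTT. 1.5 nM enzyme and compound were pre-mixed 15 min, then 2 uM Z-FR-AMC substrate added; reaction progress from fluorescence change between first and third reads (60 s).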
MARV entry inh: qHTS for inhibitors of binding or entry into cells for Marburg Virus; Marburg virus pseudotyped entry inhibition, cell reporter; control for the full effect not named in the record; about a third of the inactives were read at about 46 µM; Potency, µM (series often up to 37.8 µM), inactives show at the top dose activity change, negative = inhibition, most hits filed as inhibitors; actives 1.8% (n = 300,000); active = well fitted inhibition curve with a large enough effect; inconclusive = small, poorly fitted or top-dose-only effect, or effect the other way; inactive = flat fitted curve, though single readings scatter; tested in HEK293 cells; about a fifth of its hits are not listed in these tables; further: on the % scale 0 is the no-effect control and ±100 the full control effect; luciferase read-out
2A StopGo: High Throughput Screening for Foot and Mouth Disease Virus Antivirals | actives 1.2% (n = 410,000) | human cells with a luciferase reporter of 2A StopGo recoding; control for the full effect not named in the record | Potency, µM (doses to about 57.9 µM), inactives show at the top dose signal change, negative = less light; active = well fitted falling curve with a large enough effect; inconclusive = small, poorly fitted or top-dose-only effect; inactive = no such curve, though single readings can be large or run the other way; tested in HEK293T cells; further: on the % scale 0 is the no-effect control and ±100 the full control effect; nearly all actives have a fitted effect of over 45% in size; luciferase light after 4 h
RE007 growth inh: qHTS Assay for Inhibitors of the HIV-1 protein Vpr | S. pombe RE007 Vpr strain, BacTiter-Glo ATP luminescence, 24 h; control for the full effect not named in the record | Potency, µM (doses to about 92.2 µM), for the others: at the highest dose activity change, negative = less growth | actives 0.21% (n = 360,000); active = well fitted falling curve with a large enough effect; inconclusive = small, poorly fitted or top-dose-only effect; inactive = no such curve, though single readings can be large or run the other way;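 further: on the % scale 0 is the no-effect control and ±100 the full control effect; nearly all actives have a fitted effect of over 50% in size; the assay follows cell death caused by Vpr and the record does not say whether a fall means rescue or toxicity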
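Fission yeast strain RE007, carrying one chromosomally integrated HIV-1 vpr copy, was seeded at OD 0.01 in PMG+AL medium with 23 nL pinned compound. After 24 h at 30 °C and 99% humidity, viability was read by BacTiter-Glo luminescence.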
NS1 inh: qHTS Assay for Inhibitors of Influenza NS1 Protein Function; actives 0.4% (n = 270,000); S. cerevisiae slowed by influenza A NS1, growth recovery by OD600; AID 2326, 2010; Potency, µM (doses to about 46.1 µM), for inactives: at the top dose activity, positive = more growth; active means well fitted rising curve with a large enough effect; inconclusive means small, poorly fitted or top-dose-only effect; inactive means no such curve, though single readings can be large or run the other way; further: nearly all actives have a fitted effect of over 50% in size
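Compounds were scored for reversing the slow growth caused by influenza A NS1 in S. cerevisiae, measured by optical density at 600 nm. Assay medium contained 2% galactose at pH 6.0; NS1-free yeast of the same strain were the positive control.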
Cruzain Triton: qHTS Assay for Promiscuous and Specific Inhibitors of Cruzain (with detergent); Cruzipain (Trypanosoma cruzi), P25779; Potency, µM, for inactives: max response, negative = inhibition, hits mostly inhibitors; actives 0.43% (n = 200,000); purified cruzain, Z-FR-AMC fluorescence, 0.01% Triton;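 further: plate controls were neutral wells for no effect and buffer without enzyme for full effect; nearly all actives have a fitted effect of over 40% in size; top concentration of the series not given in the record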
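15 min RT preincubation of 1.5 nM cruzain with compound, then 2 uM Z-FR-AMC added; kinetic AMC fluorescence, 60 s delta. Triton X-100 0.01%, pH 5.5.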
An asterisk follows results filed as active; ? = inconclusive; nt = no result given; & = joins results of further samples; [ ] = another dose, or the depositor's remark. Unless noted, the call rests on the fitted dose curve; in most records, active means well fitted curve in the direction sought with a large enough effect; inconclusive means small, poorly fitted or top-dose-only effect, or another doubt; inactive means no such curve, though single readings can be large; an effect the other way counts as inactive or inconclusive. Potency means the concentration at half of the fitted maximal effect. Compounds were not picked by outcome; 4.7% or so of the library scored in one or more.

Second line of a record – Lassa entry inh	SARS PLpro yeast	Cruzain inh noDet	MARV entry inh	2A StopGo	RE007 growth inh	NS1 inh	Cruzain Triton
[1] Cc1[nH]nc2c1C(c1ccccn1)N(c1ccc(Br)cc1)C2=O (stereo unspecified)
  15.7%	5.3%	-0.9%	14.8%	-19.6%	0.4%	-1.3%	2.9%
[2] COc1ccc(C(=O)N(Cc2ccco2)Cc2ccccc2F)cc1Cl
  ?	nt	-1.3%	-8.5%[46.1 µM]	3.2%	nt	nt	-9.2%
[3] O=C(CN1CCCCCCC1)Nc1cc(Cl)cc(Cl)c1
  -29.5%[46.1 µM]	-0.5%	nt	?	-6.5%	276.7%	nt	nt
[4] Cc1cccc(-c2noc(CN(C(=O)c3c(-c4ccccc4Cl)noc3C)C(C)C)n2)c1
  nt	-8.3%	-4.5%	-1.8%	-13.6%	-6.0%	-45.1%	-3.2%
[5] CCN1CCN(Cc2cc(Br)ccc2O)CC1
  7.1%	9.3%	-2.0%	1.3%	8.5%	27.6%	9.9%	2.6%
[6] c1cnc(N2CCN(c3ccc4ccccc4n3)CC2)nc1
  ?	12.8%	nt	?	-8.7%	-3.3%	2.7%	nt
[7] Cc1ccc(NC(=O)Cc2ccc(Cl)cc2)nc1
  ?	nt	nt	4.9%	22.2%	18.4%	nt	nt
[8] Cc1cc(C)c2c(CN3CCN(C/C=C/c4ccccc4)CC3)cc(=O)oc2c1
  -9.6%	-0.9%	?	?	?	11.3%	-44.9%	-2.9%
[9] CCN(CCCNC(=O)Cn1ncc2c([nH]c3ccc(C)cc32)c1=O)c1cccc(C)c1
  ?	0.5%	-1.5%	5.1%[46.1 µM]	-22.7%&-14.8%	1.1%	8.6%	0.8%
[10] CC(=O)Nc1ccc(S(=O)(=O)N2CCC(C(=O)NCCC(=O)Nc3nccs3)CC2)cc1
  nt	2.4%	nt	nt	-4.0%	0.2%	-5.9%	nt
[11] COc1ccc2c(c1)Cc1sc(NC(=O)c3cccc(Br)c3)nc1-2
  -25.5%[46.1 µM]	nt	?	nt	-30.0%	nt	nt	-2.3%
[12] COC(=O)c1nc(N)sc1-c1ccccc1
  -3.0%	-4.9%	-1.8%	-8.9%	4.1%	19.8%	1.9%	-0.4%
[13] Cc1c(Cl)cccc1NS(=O)(=O)c1ccc(NS(=O)(=O)c2ccc3c(c2)OCCO3)cc1
  -10.6%[46.1 µM]	nt	-26.2%	0.8%[46.1 µM]	3.4%	nt	nt	-8.8%
[14] Cc1ncoc1C(=O)N1CCCC(C(=O)c2cccc(C(F)(F)F)c2)C1 (stereo unspecified)
  nt	0.1%	nt	nt	10.9%	5.5%	-2.7%	nt
[15] Cc1cc(NCCOCCO)n2ncc(-c3ccc(Cl)cc3)c2n1
  -19.7%	-17.6%	?	?	12.5%	3.6%	-66.2%	-7.7%
[16] Cn1ccnc1SCC(=O)Nc1cccc(Br)c1
  -0.4%[46.1 µM]	nt	-6.2%	?	49.4%[activator]	nt	nt	-1.8%
[17] O=C(CN1CCCCC1)Nc1ccccc1NC(=O)CN1CCCCC1
  -10.1%	4.2%	-3.1%	?	-21.4%	10.4%	7.1%	-4.6%
[18] CCOc1cc(CO)cc(Br)c1OCC(N)=O
  nt	-0.9%	nt	nt	-3.5%	-5.1%	-0.4%	nt
[19] Cc1ccc(NS(=O)(=O)c2ccc(-c3ccc(=O)[nH]n3)o2)c(C)c1
  nt	-0.1%	nt	nt	-12.9%	3.8%	0.6%	nt
[20] CC1(C)N=C(SCC(=O)Nc2ccccc2)C(c2ccc(Cl)cc2)=N1
  ?	-12.9%	4.6%	?	17.8µM*	-13.5%	-25.1%	1.8%
[21] CCOC(=O)N1CCC(N2CCCC(CO)(Cc3ccccc3C)C2)CC1 (stereo unspecified)
  nt	1.6%	nt	nt	50.4%[activator]	1.7%	0.9%	nt
[22] CC1=C(C(=O)Nc2ccccc2)C(c2cccnc2)n2nc(SCc3ccccc3F)nc2N1 (stereo unspecified)
  -4.2%[46.1 µM]	nt	8.3%	?	-17.2%	nt	nt	1.2%
[23] CC(SC(C)C(=O)NN=Cc1cccc(F)c1)C(=O)NN=Cc1cccc(F)c1 (stereo unspecified)
  7.9%[46.1 µM]	nt	nt	14.6%[46.1 µM]	-10.8%	0.4%	nt	nt
[24] Cc1ccc(-c2cn(-c3ccccc3)c(SCC(N)=O)n2)cc1C
  -0.8%	-11.1%	10.8%	-6.3%	33.4%[activator]	-8.3%	-24.2%	-9.3%
[25] O=C(O)C1CSC(c2ccc3c(c2)OCO3)N1 (stereo unspecified)
  20.8%[46.1 µM]	-1.8%	nt	2.5%[46.1 µM]	76.3%[activator]	-2.8%	4.3%	nt
[26] CC(Oc1cc2oc(=O)c3c(c2cc1Cl)CCC3)C(=O)NCc1ccccn1 (stereo unspecified)
  nt	-14.1%	nt	nt	-13.1%	-4.0%	-17.1%	nt
[27] S=c1[nH]nc(-c2ccc(Cl)cc2)n1Cc1ccccc1
  12.7%	?	-12.9%	0.4%	0.0%	3.5%	12.4%	-8.4%
[28] Cn1c(SCC(=O)Nc2cc(C(C)(C)C)nn2-c2ccccc2)nc2ccccc21
  -24.5%	3.7%	-0.3%	?	0.0%	11.4%	-7.2%	-8.6%
[29] O=C(Nc1cc(Cl)ccc1N1CCOCC1)c1cnccn1
  5.0%	-8.3%	8.0%	6.5%	-20.2%	-9.0%	-13.3%	-1.9%
[30] CCN(CC)CCSc1nc2ccccc2n1Cc1ccccc1
  nt	1.2%	nt	nt	-17.8%	-11.6%	-5.2%	nt
[31] CC(C)(C)NC(=O)CN(C(=O)C1CSC(=O)C1)c1ccc2c(c1)OCCO2 (stereo unspecified)
  17.2%	0.6%	-4.2%	0.3%	-2.5%	-3.3%	5.2%	1.6%
[32] CC(=O)Nc1ccc(S(=O)(=O)Oc2ccc(/C=N/NC(=O)c3ccc(Cl)cc3)cc2)cc1
  -1.0%	2.3%	-6.0%	-12.9%	?	4.0%	-3.3%	-3.2%
[33] CC(CC(=O)N(CCC1=CCCCC1)c1c(N)n(Cc2ccccc2)c(=O)[nH]c1=O)c1ccccc1 (stereo unspecified)
  ?	-1.1%	nt	?	-10.5%	1.6%	nt	nt
[34] Cc1ccc(/C=N/NC(=O)c2ccccn2)s1
  ?	-26.0%	-18.9%	6.51µM*	-46.4%	-14.8%	13.1%	-8.6%
[35] CC(C)NC(=O)c1ccc(N(Cc2ccc(Cl)cc2)S(C)(=O)=O)cc1
  -7.4%	1.6%	nt	-27.4%	-7.9%	3.3%	4.6%	nt
[36] CC(=O)N(Cc1ccccc1)c1ncc2c(n1)c(=O)c(C#N)c1ccccn12
  -1.7%	-0.5%	-0.1%	7.4%	nt	0.1%	-4.0%	-4.7%
[37] CC(CSc1nnnn1-c1ccccc1)Cn1c(N2CCCC2)nc2c1c(=O)[nH]c(=O)n2C (stereo unspecified)
  -16.0%	2.0%	-1.1%	7.4%	-5.7%	-17.2%	14.2%	-3.5%
[38] CC(=O)N1CCc2c(sc3c2c(=O)n(-c2cccc(Cl)c2C)c(=O)n3Cc2ccccc2C)C1
  nt	nt	23.6%	?	-21.6%	nt	nt	-3.5%
[39] CCOc1ccc(-c2nonc2NC(=O)c2oc3cc(C)ccc3c2C)cc1OCC
  11.7%[46.1 µM]	nt	-7.0%	4.4%[46.1 µM]	0.0%	nt	nt	0.5%
[40] Nc1c(C(=O)OCC2CCCO2)c2nc3ccccc3nc2n1C1CCCCC1 (stereo unspecified)
  0.6%	-9.8%	7.2%	?	2.2%	-4.0%	-21.4%	0.8%
[41] CN(C)S(=O)(=O)N1CCC(CO)(CCc2ccccc2)CC1
  -9.4%[46.1 µM]	-2.8%	nt	1.8%[46.1 µM]	-12.1%	-8.7%	-4.1%	nt
[42] O=C(NC1CCCC1)C1CCCN1S(=O)(=O)c1cccc2cccnc12 (stereo unspecified)
  nt	0.3%	-8.7%	nt	2.5%	-4.3%	-3.5%	-0.4%
[43] CN(C)c1cccc(C(=O)N/N=C/c2ccsc2)c1
  ?	20µM*	0.9%	?	-8.9%	-11.7%	5.6%	-3.3%
[44] Cc1ccc2nc(N3CCN(C(=O)CCCC(=O)O)CC3)nc(-c3ccccc3)c2c1
  nt	5.0%	nt	nt	-13.7%	-0.6%	-3.5%	nt
[45] Nn1c(SCC(=O)Nc2ccc(F)cc2F)nnc1-c1cccnc1
  7.1%	-5.4%	4.9%	21.9%	60.5%[activator]	-9.1%	-0.6%	1.1%
[46] CCCCCn1c(CN2CC(C)OC(C)C2)nc2c1c(=O)n(C)c(=O)n2C (stereo unspecified)
  nt	-2.9%	?	nt	-17.1%	10.0%	-5.7%	5.5%
[47] NC(=O)CSc1nnnn1-c1cccc(O)c1
  -1.9%[46.1 µM]	nt	-0.2%	nt	-6.1%	nt	nt	1.2%
[48] N=C1c2ccccc2CN1NC(=O)c1ccc(Br)cc1
  1.7%	21.5%	-4.8%	-3.1%	-6.7%	-15.3%	26.4%	-5.2%
[49] O=S1(=O)CCN2C=C(Cl)C=C(Cl)C2=N1
  6.6%	-0.1%	nt	?	3.6%	-14.3%	nt	nt
[50] CC/C(=N\NC(N)=O)c1c(O)[nH]c(=O)[nH]c1=O
  ?	1.2%	nt	?	-8.0%	-2.6%	6.5%	nt
[51] CCCc1nnc(NC(=O)c2cc(=O)c3cc(Cl)ccc3o2)s1
  6.0%[46.1 µM]	nt	-2.4%	?	-3.4%	nt	nt	-1.0%
